From PubChem
Six1-Eya2 inh = blocks human Six1 binding to Eya2. Q15475+O00167. 360,000 tested, 0.56% active. AID 651725. AlphaScreen GST-Six1/His-Eya2 binding, biochemical; hits give low values; control for the full effect not named in the record. activity change, % (no concentration beside the values); in the data active = activity change below about -65%; inconclusive = about -30% to -65%; inactive = above about -30%; further: on the % scale 0 is the no-effect control and ±100 the full control effect; compound concentration not given in the record
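Compounds are tested against tagged Six1 and Eya2 proteins bridged by glutathione donor and nickel acceptor beads; after a one-hour incubation at 37 °C without light, AlphaScreen emission is recorded.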
Sfp PPTase inh = blocks B. subtilis Sfp PPTase activity; 310,000 tested, 3.5% active; Potency, µM, inactives show max response, negative = inhibition, most hits filed as inhibitors; Biochemical Sfp PPTase activity, qHTS; AID 1490; Q9F4F7; active means well fitted inhibition curve with a large enough effect; inconclusive means small, poorly fitted or top-dose-only effect, or another doubt; inactive means no such curve, though single readings can be large or run the other way;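 further: the enzyme is Sfp with the accession as filed and its product quenches rhodamine fluorescence; potency means the concentration at half of the fitted maximal effect; 0% = enzyme reaction without inhibitor and -100% = no enzyme wells; top concentration of the series not given in the record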
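Fluorescence-quenching assay with 15 nM Sfp, 5 uM rhodamine-CoA and 12.5 uM BHQ-2-labelled ybbR peptide in pH 7.6 Hepes/MgCl2 buffer. Enzyme was pre-incubated with compound for 15 min at room temperature. Rate was taken from the 30-min fluorescence change (525/598 nm).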
TRPV1 PAM = enhances activation of the human vanilloid receptor TRPV1; Q8NER1; TRPV1-expressing cells, Fluo-8 calcium influx, capsaicin EC20 potentiation; host cell line not named in the record; control for the full effect not named in the record; potentiation, % at 8.33 µM; 320,000 tested, 0.02% active; active means potentiation above 80%; inconclusive means 30% to 80%; inactive means below 30%; further: 0% is about no effect
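Cells expressing TRPV1 were dye-loaded with Fluo-8 and read kinetically: 10 s baseline, 3 min after compound (agonist portion), then 2 min after EC20 capsaicin (allosteric enhancer portion). Calcium-bound dye fluorescence at 480/520 nm.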
PINK1 expr mod = changes PINK1 expression; PINK1 immunofluorescence, high-content cytometry, 24 h; Potency, µM (doses to about 76.6 µM), without a hit: at the top dose activation (PINK1 increase), hits mostly activators; 410,000 tested, 0.2% active; AID 624263; active = well fitted activation curve with a large enough effect; inconclusive = small, poorly fitted or top-dose-only effect; inactive = flat fitted curve, though single readings scatter; cell line not stated here;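 further: potency means the concentration at half of the fitted maximal effect; % of control where 0% means no effect; nearly all actives have a fitted effect of over 65% in size; a mitochondrial uncoupler was the plate control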
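A stable cell line was treated with compounds at 5 concentrations for 24 hours, with CCCP as control. PINK1 levels and mitochondrial localization were measured by immunofluorescence with mitochondrial, cell and nuclear markers after fixation, read by laser-scanning cytometry.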
D2 potentiator = positive allosteric modulators of human D2 dopamine receptor. AID 624464. 360,000 tested, 0.23% active. potentiation, % (test concentration not listed). DiscoveRx D2 beta-arrestin cells, luminescence, 90 min; 100% = 57 uM dopamine signal. P14416; active = potentiation of 50% or more; inconclusive = 30% to 50%; inactive = 30% or less;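 further: compound concentration not given in the record; tested on top of an EC20 dose of dopamine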
Target sequence (P14416 whole entry, looked up): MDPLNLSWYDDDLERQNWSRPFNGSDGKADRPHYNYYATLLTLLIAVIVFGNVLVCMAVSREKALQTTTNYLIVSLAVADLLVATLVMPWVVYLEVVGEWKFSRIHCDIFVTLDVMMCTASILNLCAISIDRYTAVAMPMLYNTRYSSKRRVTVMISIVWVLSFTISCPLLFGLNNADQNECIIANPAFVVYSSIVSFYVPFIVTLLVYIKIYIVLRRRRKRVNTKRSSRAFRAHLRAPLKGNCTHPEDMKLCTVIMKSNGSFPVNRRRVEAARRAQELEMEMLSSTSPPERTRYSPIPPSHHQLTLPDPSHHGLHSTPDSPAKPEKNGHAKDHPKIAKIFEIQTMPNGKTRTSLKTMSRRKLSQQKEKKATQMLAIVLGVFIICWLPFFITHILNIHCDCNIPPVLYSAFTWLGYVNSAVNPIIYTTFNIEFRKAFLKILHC
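PathHunter D2 cells, attached overnight at 37 deg C, received compound in DMSO plus dopamine at EC20 (50 nM final) for 90 min at 37 deg C. Beta-arrestin recruitment was read as luminescence after 1 h with detection reagent at ambient temperature.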
CtBP-E1A inh = blocks the CtBP interaction with E1A; AlphaScreen GST-E1A/His-CtBP binding, 1536-well; hits give low values; control for the full effect not named in the record; activity change, % (concentration not given with the values); 340,000 tested, 0.49% active; in the data active means activity change below about -65%; inconclusive means about -30% to -65%; inactive means above about -30%; further: on the % scale 0 is the no-effect control and ±100 the full control effect
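AlphaScreen with 125 nM GST-E1A and 125 nM His-CtBP (5X stocks) in Tris pH 8.0, 300 mM NaCl, BSA, Tween 20, TCEP. Compounds preincubated 2 h at 37 deg C, then glutathione donor/nickel acceptor beads added for 1 h at 37 deg C in dark.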
D2 agonist = agonists of human D2 dopamine receptor (beta-arrestin); P14416; DiscoveRx PathHunter D2 beta-arrestin, luminescence, 90 min; 100% = 57 uM dopamine signal; activation, % (concentration not given with the values); 360,000 tested, 0.084% active; AID 624465; in the data active = activation above about 40%; inconclusive = about 15% to 40%; inactive = below about 15%; further: compound concentration not given in the record; the text of the record calls up to 30% inactive
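DiscoveRx PathHunter D2 beta-arrestin cells (2,100/well) attached overnight, then compound-stimulated 90 min at 37 C in HBSS/10 mM HEPES/0.1% Tween-20 buffer; beta-galactosidase complementation read by luminescence after 1 h at ambient temperature. Dopamine 57 uM final (EC100) as control.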
An asterisk follows results filed as active; ? = inconclusive; nt = not tested or not shown; & = joins results of further samples; [ ] = another dose, or the depositor's remark.

The first eleven records, ahead of the listing:
SMILES | Six1-Eya2 inh | Sfp PPTase inh | TRPV1 PAM | PINK1 expr mod | D2 potentiator | CtBP-E1A inh | D2 agonist
Cc1ccccc1-c1ccnc2[nH]n(-c3ccccc3)c(=O)c12 | 1 | 12% | -4 | 0.6%&-1.5% | -3 | 9 | 12
NCCCCCc1nnc(SCc2ccc(Cl)cc2Cl)o1 | -1 | 7% | 15 | nt | -9 | -14 | -1.3
CS(=O)(=O)c1ccc(Cl)c(NC(=O)CSc2n[nH]c(N)n2)c1 | -2 | nt | -18 | 4.0% | -19 | 1 | -5.4
CCCCn1c(N)c(N(CC)C(=O)c2cc(Br)ccc2Cl)c(=O)[nH]c1=O | 7 | 6% | 9 | 1.1% | 2 | -21 | -1.4
O=C(NNC(=O)c1ccccc1O)c1ccc(NS(=O)(=O)c2ccc(F)c(F)c2)cc1 | -28 | nt | 18 | 1.2% | 10 | -18 | -3.8
O=[N+]([O-])c1ccccc1/C=N/N1CCN(c2ccncc2S(=O)(=O)N2CCCCC2)CC1 | ? | -7% | -6 | 2.7% | -8 | ? | -0.4
COc1ccc(C(=O)Cn2nnc(-c3ccccc3NC(=O)c3ccco3)n2)cc1 | 7 | ? | 8 | 3.8% | -8 | 1 | -0.9
CC(=O)NCc1ccc(C(=O)CSc2nnc(-c3ccncc3)n2Cc2ccccc2)o1 | 17 | ? | 10 | -3.5% | 13 | -5 | 0.6
CCc1ccc(C(=O)C(C)OC(=O)Cn2[nH]c(=O)c3ccccc3c2=O)cc1 (stereo not given) | -1 | nt | -24 | -1.1% | -1 | -3 | -2.9
COC(=O)[C@]12CCCCC=C1N(Cc1ccc(Cl)cc1Cl)C(=O)[C@H](CC(=O)NCCCCc1ccccc1)C2 | -1 | nt | nt | 2.7% | nt | -7 | nt
CCCn1c(N)c(N(CCOC)C(=O)CSCC(=O)Nc2ccc(C)cc2)c(=O)[nH]c1=O | -1 | nt | -4 | 4.7% | -6 | nt | -2.8

This part in full, previewed entries included:
SMILES | Six1-Eya2 inh | Sfp PPTase inh | TRPV1 PAM | PINK1 expr mod | D2 potentiator | CtBP-E1A inh | D2 agonist
Cc1ccccc1-c1ccnc2[nH]n(-c3ccccc3)c(=O)c12 | 1 | 12% | -4 | 0.6%&-1.5% | -3 | 9 | 12
NCCCCCc1nnc(SCc2ccc(Cl)cc2Cl)o1 | -1 | 7% | 15 | nt | -9 | -14 | -1.3
CS(=O)(=O)c1ccc(Cl)c(NC(=O)CSc2n[nH]c(N)n2)c1 | -2 | nt | -18 | 4.0% | -19 | 1 | -5.4
CCCCn1c(N)c(N(CC)C(=O)c2cc(Br)ccc2Cl)c(=O)[nH]c1=O | 7 | 6% | 9 | 1.1% | 2 | -21 | -1.4
O=C(NNC(=O)c1ccccc1O)c1ccc(NS(=O)(=O)c2ccc(F)c(F)c2)cc1 | -28 | nt | 18 | 1.2% | 10 | -18 | -3.8
O=[N+]([O-])c1ccccc1/C=N/N1CCN(c2ccncc2S(=O)(=O)N2CCCCC2)CC1 | ? | -7% | -6 | 2.7% | -8 | ? | -0.4
COc1ccc(C(=O)Cn2nnc(-c3ccccc3NC(=O)c3ccco3)n2)cc1 | 7 | ? | 8 | 3.8% | -8 | 1 | -0.9
CC(=O)NCc1ccc(C(=O)CSc2nnc(-c3ccncc3)n2Cc2ccccc2)o1 | 17 | ? | 10 | -3.5% | 13 | -5 | 0.6
CCc1ccc(C(=O)C(C)OC(=O)Cn2[nH]c(=O)c3ccccc3c2=O)cc1 (stereo not given) | -1 | nt | -24 | -1.1% | -1 | -3 | -2.9
COC(=O)[C@]12CCCCC=C1N(Cc1ccc(Cl)cc1Cl)C(=O)[C@H](CC(=O)NCCCCc1ccccc1)C2 | -1 | nt | nt | 2.7% | nt | -7 | nt
CCCn1c(N)c(N(CCOC)C(=O)CSCC(=O)Nc2ccc(C)cc2)c(=O)[nH]c1=O | -1 | nt | -4 | 4.7% | -6 | nt | -2.8
N#Cc1cc(C(=O)c2cc(Cl)ccc2O)cn(-c2ccccc2)c1=O | 4 | 10% | -7 | 4.2% | -7 | -4 | 1.0
CC(=O)NS(=O)(=O)c1ccc(NC(=O)c2cc(-c3ccc(C)c(C)c3)nc3ccccc23)cc1 | -7 | ? | 5 | 4.9% | -13 | -7 | -1.3
CCOC(=O)C1C(=O)C=C(c2cccs2)CC1c1ccccc1C (stereo not given) | -7 | 2% | -9 | 0.2% | -10 | 1 | -2.6
Cc1ccc(C(=O)Nc2ccccc2C(=O)NCC2CCCO2)cc1 (stereo not given) | -1 | 8% | -1 | 0.2% | -13 | -11 | -1.7
Cc1occc1-c1nnc(SCC(=O)NC2CCCCC2C)o1 (stereo not given) | -2 | nt | 3 | 1.6% | -22 | 9 | -6.6
CCOC(=O)c1c(NC(=O)C2COc3ccccc3O2)sc(C)c1C (stereo not given) | 6 | -11% | 4 | 2.1% | -7 | -2 | -4.7
COc1cc(OC)cc(C(=O)Nc2ccc(S(=O)(=O)N3CCOCC3)cc2)c1 | -14 | 15% | -5 | -0.1% | -2 | -9 | -0.7
CC(OC(=O)Cn1[nH]c(=O)c2ccccc2c1=O)C(=O)Nc1ccc(F)cc1 (stereo not given) | 0 | nt | -3 | 3.2% | -6 | 4 | -3.5
N#CC1=C(N)C(C#N)(C#N)C(c2cccnc2)C2CC(c3ccccc3)CC=C12 (stereo not given) | -15 | -14% | 1 | 2.0% | -32 | -8 | -11
CC(C)NC(=O)C(=O)NNC(=O)CCc1ccccc1 | -2 | -6% | 5 | -0.2% | -5 | 6 | -0.3
CCOC(=O)C1=C(C)Nc2ncnn2C1c1ccc(N(C)C)cc1 (stereo not given) | -4&-7 | 5% | ? | 1.8% | 1&-8 | -5&7 | -0.2&1.4
CCOC(=O)C1(C)CCCCCN1C(=O)c1ccc(OC)cc1 (stereo not given) | 5 | nt | nt | 1.1% | -2 | 5 | -4.4
O=[N+]([O-])c1cccc(S(=O)(=O)N2CCN(S(=O)(=O)N3CCCCCC3)CC2)c1 | -3 | 3% | -4 | 2.0% | 2 | -3 | -0.9
O=C(Nc1ccc(OCC(=O)N2CCOCC2)cc1)c1ccccc1F | 1 | 21% | -14 | -0.2% | 3 | 0 | -5.7
COc1ccc2cc(C[C@@H]3CC[C@@H](CNC(N)=O)O3)ccc2c1 | -1 | nt | nt | 1.3% | nt | 4 | -1.2
CN1CCN(C(=O)c2c(O)c3cccc4c3n(c2=O)CCC4)CC1 | 0 | 6% | -3 | -0.2% | 7 | 4 | -0.7
COc1ccc(C(=O)N2CCc3ccccc32)cc1S(=O)(=O)N1CCOCC1 | -20 | nt | 0 | 2.4% | -2 | 6 | 3.5
COc1ccccc1NC(=O)COC(=O)[C@@H]1CCCN1C(=O)c1cccs1 | -3 | 5% | -3 | 0.2% | -4 | -5 | -3.7
O=S(=O)(NCc1ccc2c(c1)OCO2)c1cccc2nsnc12 | 2 | 16% | 2 | -1.3% | -6 | -13 | 2.8
Cc1cccc2cc(C#N)c(NCCNC(=O)COc3ccccc3)nc12 | 11 | 50µM* | ? | 1.1% | -7 | -23 | 3.6
CCOC(=O)c1ccc(Oc2coc3cc(O)ccc3c2=O)cc1 | 9 | 10% | -19 | 0.6% | 6 | 0 | 2.6
O=C(CSc1nnc(-c2ccco2)o1)N1CCN(c2ccccc2)CC1 | 4 | 16% | 7 | 0.0% | -10 | 0 | -6.5
COc1ccc(OC)c(C(=O)Nc2ccc3[nH]ccc3c2)c1 | 1 | nt | nt | 0.0% | 23 | -4 | -3.9
CCCCc1c(CCC)c(=N)c2ccccc2n1C | -1 | 2% | 17 | 0.0% | -24 | -3 | -1.7
O=C(Nc1cccs1)OCCN1CCN(Cc2ccccc2)CCC1=O | -1 | -8% | -2 | -0.4% | -12 | 3 | 1.5
O=C(Nc1nc2ccccc2[nH]1)c1ccccc1OC(F)F | -1 | 9% | 13 | 1.7% | -5 | -28 | 0.9
C/C(=N\NS(=O)(=O)c1ccc(C)cc1)c1cccs1 | 8 | 8% | 0 | -2.1% | 4 | -7 | 0.2
Cc1ccc(CN2C(=O)CCC2C(=O)NCCCN2CCCC(C)C2)cc1 (stereo not given) | -1 | -10% | ? | 2.5% | -35 | -20 | -1.1
OC1(CNCc2ccccc2)C2CC3CC(C2)CC1C3 (stereo not given) | 15 | 12% | -4 | -1.1% | -14 | 2 | 0.8
Cc1n[nH]c(=O)c2c(NC(=O)CSc3ccc(F)cc3)oc(C)c12 | 0 | nt | 1 | 1.9% | -16 | 7 | -7.5
O=C1CN(C(=O)CN2C(=O)NC3(CCCCC3)C2=O)c2ccccc2N1 | 2 | -9% | -1 | -0.7% | -11 | 4 | -3.2
c1csc(-c2noc(CN3CCN4CCCC4C3)n2)c1 (stereo not given) | -2 | 14% | 3 | -0.6% | -3 | 2 | -0.6
COc1ccc(-c2nnn(CC(=O)N(c3cccc(O)c3)C(C)C(=O)NC3CCCC3)n2)cc1OC (stereo not given) | -7 | 7% | -8 | -0.1% | 3 | -2 | 0.2
COC(=O)c1ccc(NC(=O)Cc2ccc(F)cc2)cc1 | -3 | 8% | 3 | 1.0% | -2 | -3 | -1.0
CC(NCCOCCOc1ccccc1)c1ccccc1 (stereo not given) | 2 | 0% | -5 | -0.3% | -29 | -3 | -2.2
NC(=O)COC(=O)CC(NC(N)=O)c1ccc(Cl)cc1 (stereo not given) | -2 | 4% | -2 | -0.3% | -3 | 0 | -1.4
O=C(Oc1ccc(Cl)cc1)c1ccc(COC(=O)c2cnccn2)cc1 | 3 | -10% | -5 | nt | -7 | 2 | -2.7
CC(=O)Nc1ccc(SCC(=O)c2cc(C)ccc2C)cc1 | -7 | -4% | ? | 1.8% | -7 | 2 | -2.7
CCn1c(CC(=O)Nc2ccc(C)c(Cl)c2)nnc1SCCOc1ccc(OC)cc1 | -10 | 6% | 9 | 26%[38.3 µM] | 7 | -6 | -2.0
CCN[C@H]1C[C@H](C)S(=O)(=O)c2sc(S(N)(=O)=O)cc21 | 13 | nt | 4 | -0.3% | 3 | 7 | 0.4
CC1CCN(Cc2nnnn2CCCC(=O)NC(c2ccccn2)C(F)(F)F)CC1 (stereo not given) | 1 | 14% | -4 | 5.6% | 17 | 19 | 6.3
